Bioassay records as filed in PubChem BioAssay.
ClpP mod – qHTS Assay for Activators of ClpP | ATP-dependent Clp protease proteolytic subunit (Bacillus subtilis (strain 168)), P80244 | purified B. subtilis ClpP, FRET peptide cleavage, 20 min | Potency, µM (series often up to 57.5 µM), for the others: at the top dose activity change, negative = active | actives 1.9% (n = 340,000) | AID 651965, 2013; active = well fitted falling curve with a large enough effect; inconclusive = small, poorly fitted or top-dose-only effect; inactive = no such curve, though single readings can be large or run the other way; note: potency is the fitted concentration of half-maximal effect; the source files actives as falling curves though it sought activators and does not explain the sign; nearly all actives have a fitted effect of over 65% in size; many hits overshoot -100%
Target sequence (P80244 whole entry, looked up): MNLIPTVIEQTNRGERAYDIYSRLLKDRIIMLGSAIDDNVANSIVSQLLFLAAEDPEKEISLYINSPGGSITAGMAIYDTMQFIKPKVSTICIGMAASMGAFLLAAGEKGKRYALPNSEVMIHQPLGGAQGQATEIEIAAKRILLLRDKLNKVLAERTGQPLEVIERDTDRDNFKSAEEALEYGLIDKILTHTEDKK
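Purified B. subtilis ClpP, 10 microg/mL final in Tris/HCl pH8 with KCl, BSA, glycerol and Tween-20, cleaved an Abz/nitrotyrosine-quenched decapeptide. Fluorescence (ex 320, em 430) was read at 0 and 20 min at room temperature. Delta was normalized to 5.8 microM ADEP and DMSO/no-enzyme controls.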
Sfp PPTase inh – inhibitors of Bacillus subtilis Sfp phosphopantetheinyl transferase; Q9F4F7; Biochemical Sfp PPTase activity, qHTS; Potency, µM, for the others: max response, negative = inhibition, hits mostly inhibitors; actives 3.5% (n = 310,000); active = well fitted inhibition curve with a large enough effect; inconclusive = small, poorly fitted or top-dose-only effect, or another doubt; inactive = no such curve, though single readings can be large or run the other way;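 note: the enzyme is Sfp with the accession as filed and its product quenches rhodamine fluorescence; potency is the fitted concentration of half-maximal effect; 0% = enzyme reaction without inhibitor and -100% = no enzyme wells; top concentration of the series not given in the record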
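Fluorescence-quenching assay with 15 nM Sfp, 5 uM rhodamine-CoA and 12.5 uM BHQ-2-labelled ybbR peptide in pH 7.6 Hepes/MgCl2 buffer. Enzyme was pre-incubated with compound for 15 min at room temperature. Rate was taken from the 30-min fluorescence change (525/598 nm).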
TRPML1 blocker – human mucolipin-1 channel inhibition. TRPML1-inducible cells, Ca2+ dye fluorescence, FDSS; hits give low values; inhibition of EC80 agonist-evoked calcium signal. activity change, negative = inhibition, % (test concentration not listed). actives 0.02% (n = 390,000); in the data active means activity change below about -50%; inconclusive means about -30% to -50%; inactive means above about -30%;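 note: stimulus is agonist 54-4 at its EC80 concentration; % is set by controls: 0 for no effect and ±100 for the full control effect; compound concentration not given in the record; the text of the record puts the active cut at -80%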
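Calcium fluorescence in TRPML1-DL cells induced overnight with Tet: a 110 s read after compound pin addition, then a 110 s antagonist read after challenge with 54-4 at 4 uM final (EC80).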
Menin MLL FP FL – inhibitors of human menin-MLL interaction, wild-type MLL peptide. Fluorescence polarization, fluorescein-MLL peptide displacement from menin. FP activity change, % at 61.4 µM. 290,000 tested, under 10 active. AID 1766; inconclusive = falling polarisation curve, or a change in total fluorescence; inactive = total fluorescence flat and polarisation flat or rising; no compound was filed as active; the % refers to the polarisation; negative = inhibition;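 note: % of control where 0% means no effect; inhibitors lower the polarisation; unlabelled MLL peptide was the positive control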
PINK1 expr mod – changes PINK1 expression; PINK1 immunofluorescence, high-content cytometry, 24 h; Potency, µM (doses to about 76.6 µM), inactives show at the top dose activation (PINK1 increase), hits mostly activators; actives 0.2% (n = 410,000); active = well fitted activation curve with a large enough effect; inconclusive = small, poorly fitted or top-dose-only effect; inactive = flat fitted curve, though single readings scatter; cell line not stated here;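 note: potency is the fitted concentration of half-maximal effect; % of control where 0% means no effect; nearly all actives have a fitted effect of over 65% in size; a mitochondrial uncoupler was the plate control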
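Compound titrations (5 concentrations, 24 h) on a stable cell line; DMSO and CCCP controls. Endpoint: fixed-cell PINK1 immunofluorescence with mitochondrial, cell and nuclear markers, scanned by microplate cytometer.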
TRPML1 ag – human mucolipin-1 channel agonism. Q9GZU1. activation, % (no concentration beside the values). actives 0.12% (n = 410,000). TRPML1-expressing cells, Ca2+ dye fluorescence, FDSS; host cell line not named in the record; reference of the full effect not given here; in the data active = activation above about 50%; inconclusive = about 30% to 50%; inactive = below about 30%; note: 0% is about no effect; the text of the record puts the active cut at 80%
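TRPML1-DL cells, Tet-induced overnight (~16 h, 37 degrees C), loaded 45-90 min at room temperature with Ca8 no-wash calcium dye plus quencher. FDSS fluorescence: 10 s baseline, compound pin-transfer, 110 s agonist read, then EC80 54-4 (4uM final) and 110 s antagonist read.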
TRPV1 PAM – enhances activation of the human vanilloid receptor TRPV1; Q8NER1; potentiation, % at 8.33 µM; TRPV1-expressing cells, Fluo-8 calcium influx, capsaicin EC20 potentiation; host cell line not named in the record; control for the full effect not named in the record; actives 0.02% (n = 320,000); active means potentiation above 80%; inconclusive means 30% to 80%; inactive means below 30%; note: 0% is about no effect
Target sequence (Q8NER1 whole entry, looked up): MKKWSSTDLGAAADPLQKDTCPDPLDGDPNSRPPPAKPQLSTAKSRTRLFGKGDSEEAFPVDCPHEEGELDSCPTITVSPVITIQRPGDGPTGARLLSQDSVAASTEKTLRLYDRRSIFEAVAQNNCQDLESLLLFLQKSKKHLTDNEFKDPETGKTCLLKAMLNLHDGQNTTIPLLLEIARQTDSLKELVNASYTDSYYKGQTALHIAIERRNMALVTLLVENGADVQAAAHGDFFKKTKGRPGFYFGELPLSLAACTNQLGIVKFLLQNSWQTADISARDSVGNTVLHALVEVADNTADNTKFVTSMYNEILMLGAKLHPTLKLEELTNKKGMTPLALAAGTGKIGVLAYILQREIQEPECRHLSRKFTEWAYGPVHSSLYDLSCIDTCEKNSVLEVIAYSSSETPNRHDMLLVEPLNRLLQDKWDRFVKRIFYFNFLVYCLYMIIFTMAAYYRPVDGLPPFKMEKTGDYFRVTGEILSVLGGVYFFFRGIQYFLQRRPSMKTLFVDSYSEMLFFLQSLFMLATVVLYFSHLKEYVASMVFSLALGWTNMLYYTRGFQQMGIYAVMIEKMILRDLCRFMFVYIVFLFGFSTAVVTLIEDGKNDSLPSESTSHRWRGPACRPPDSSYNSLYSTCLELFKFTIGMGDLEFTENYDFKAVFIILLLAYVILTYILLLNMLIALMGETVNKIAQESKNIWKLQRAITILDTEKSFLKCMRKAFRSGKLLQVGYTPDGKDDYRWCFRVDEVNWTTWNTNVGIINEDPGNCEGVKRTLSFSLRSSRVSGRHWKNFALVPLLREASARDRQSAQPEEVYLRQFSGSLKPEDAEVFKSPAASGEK
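Fluo-8 calcium influx in TRPV1-expressing cells, kinetic read (ex 480/em 520 nm). Compound added and read 3 min for agonist activity, followed by capsaicin at EC20 final and 2 min further read for enhancement.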
* hit, by the source's call; ? = inconclusive; · = no result given; [ ] = remark or other dose. Random draw from the library. About 4.4% of those tested had a hit in this group.

SMILES | ClpP mod | Sfp PPTase inh | TRPML1 blocker | Menin MLL FP FL | PINK1 expr mod | TRPML1 ag | TRPV1 PAM
Cc1ccc(C(=O)N[C@H](C(=O)Nc2ccc(F)cc2)C(C)C)cc1 | 0.0% | 2.9% | -8.6 | 2.9 | 5.6% | 1.4 | -24.5
CC(=O)Nc1ccc(C(=O)COC(=O)CN2C(=O)NC3(CCCCC3C)C2=O)cc1 (configuration not stated) | -3.2% | · | 13.0 | · | -0.3% | 1.8 | 1.8
CCOC(=O)COc1ccc(S(=O)(=O)Nc2cccc(SC)c2)cc1 | 1.0% | 18.0% | 4.0 | 5.6 | 14.5%[38.3 µM] | 1.7 | 4.8
COc1ccc(-c2nnc(NC(=O)c3cc(Cl)ccc3Cl)o2)cc1 | -2.6% | 8.2% | 0.5 | -2.5 | 1.1% | 0.1 | 6.0
O=C(/C=C/c1ccc(S(=O)(=O)N2CCOCC2)cc1)N1CCCCC1 | · | · | 8.2 | · | 4.4% | 0.0 | -11.5
S=C(NN=C1C2CC3CC(C2)CC1C3)Nc1ccccc1 | -2.1% | ? | 10.4 | 2.4 | 2.0% | 0.6 | -1.6
O=C(CN(C(=O)CCC(=O)Nc1ccccn1)c1ccc2c(c1)OCO2)NCc1ccc(F)cc1 | · | 12.8% | 15.9 | 1.7 | 0.7% | -0.3 | -0.6
CCN(CC)c1nc2ccccc2[nH]1 | 0.9% | 10.8% | 6.8 | 6.6 | 0.9% | -0.8 | -0.2
CCc1ccc(NC(=O)C2CCCCC2C(=O)O)cc1 (configuration not stated) | -0.3% | 19.8% | 3.2 | 4.5 | -0.1%[38.3 µM] | -0.6 | -1.5
O=C(O)CC(O)(CC(=O)O)C(=O)O | -1.4% | 4.4% | · | -6.1 | -0.7% | · | ·
COc1ccc(S(=O)(=O)CCC(=O)N(C)c2ccc(OC)cc2OC)cc1 | 2.8% | 12.0% | -15.5 | -3.0 | -5.2%[38.3 µM] | -0.1 | -17.9
COC(C(=O)N1CCC(CCC(=O)Nc2ccccc2)CC1)c1ccccc1 (configuration not stated) | 0.8% | 17.5% | -12.1 | · | 3.1% | 0.3 | 7.9
O=C(c1ccco1)N1C2C=CC(C2)C1(C(F)(F)F)C(F)(F)F (configuration not stated) | 1.1% | 0.4% | 26.7 | 4.6 | 1.0% | -0.1 | 5.7
COc1ccc(C/C(C)=N\NC(=O)c2cn(C)c3ccccc23)cc1OC | -2.0% | 9.5% | -7.4 | 2.5 | 10.6% | -0.7 | 12.7
CC(=O)Nc1nc2cc3c(cc2s1)OCO3 | -0.2% | 7.0% | -3.6 | 0.9 | 0.3% | -0.1 | ·
COc1ccc(-c2cc(C(=O)N(C)CC(=O)Nc3ccccc3C(F)(F)F)c3ccccc3n2)cc1OC | -24.5% | · | -7.8 | · | -0.4% | 0.7 | ·
CCCn1c(SCCN2C(=O)c3ccccc3C2=O)n[nH]c1=O | -0.1% | 23.4% | 8.6 | 0.4 | -1.4%[38.3 µM] | 1.7 | 3.6
Cn1c(=O)c2nc(SCC(=O)Nc3ccc(Cl)c(Cl)c3)n(C)c2n(C)c1=O | 1.8% | · | -2.0 | · | 2.9% | 2.1 | ·
CCNC(=O)c1ccccc1-c1nc(-c2ccccc2)no1 | · | 9.2% | -15.4 | 7.3 | 0.3% | 0.3 | 4.3
COCC1CCN(C(=O)c2cc(COc3ccc(C)c(C)c3)on2)C1 (configuration not stated) | 0.6% | 17.4% | -4.4 | · | 0.6% | -0.8 | -9.1
O=C(COC(=O)CSc1ccc([N+](=O)[O-])cc1)NCc1cccs1 | 0.1% | · | 1.6 | · | -0.4% | -0.4 | 20.8
Cc1ccc(S(=O)(=O)N(C)CC(=O)OCC(=O)N2CCN(c3ccccc3)CC2)cc1 | 1.5% | 5.1% | -5.0 | -0.9 | -0.6% | 0.6 | 8.3
CCOC(=O)C1CCCN(C(=O)CCn2nc(-c3ccccc3)ccc2=O)C1 (configuration not stated) | -10.5% | 18.0% | 27.0 | 4.1 | -0.5% | -0.2 | 10.6
COc1ccc(/C=N/NC(=O)CNS(=O)(=O)c2ccc(C)cc2)cc1 | · | 11.5% | -13.5 | -1.9 | -0.8% | 1.4 | 3.7
COc1ccc(NS(=O)(=O)c2cccc(C(=O)NCC3(N(C)C)CCCCC3)c2)cc1 | -2.2% | · | 24.3 | · | -1.8% | 1.1 | 3.1
COC(=O)c1cccc(NC(=S)NC(C)C)c1 | -1.7% | -9.6% | -1.6 | -0.1 | 2.5% | -1.2 | -12.0
COCc1cc(=O)[nH]c(/N=C(\N)Nc2cccc(C)c2)n1 | -1.3% | -19.4% | 2.7 | 2.3 | -3.1% | 1.3 | ?
COc1ccc(NC(=S)N2CCN(c3ncccn3)CC2)c(OC)c1 | -3.2% | 50.1µM* | 9.5 | -0.6 | 0.4% | 1.1 | 4.7
C/C(=N\NC(=O)CSCc1ccccc1Br)c1cccc([N+](=O)[O-])c1 | 0.5% | 12.0% | 16.2 | 3.9 | 16.8% | -0.1 | 1.6
COc1ccc(NC(=O)C(C)N2C(=O)c3ccccc3S2(=O)=O)c(OC)c1 (configuration not stated) | 0.6% | · | -17.1 | · | 0.6% | 0.0 | 5.4
CCOC(=O)c1c(-c2ccc(OC)cc2)csc1NC(=O)C1CCCO1 (configuration not stated) | -4.7% | 15.8µM* | 28.5 | 2.3 | -0.4% | 4.2 | -6.8
CC12C(=O)N(n3cnnc3)C(=O)C1C1C=CC2C1 (configuration not stated) | 0.7% | 20.0% | 6.9 | 2.4 | -1.4%[38.3 µM] | -0.4 | -5.7
COc1ccc(Nc2ncccc2C(=O)O)cc1 | -0.4% | 0.2% | -6.9 | -2.2 | 0.1%[38.3 µM] | -0.3 | 28.7
COC(=O)c1ccc(N(C(=O)CNC(=O)c2ccco2)C(C(=O)NCC2CCCO2)c2ccc(OC)c(OC)c2)cc1 (configuration not stated) | · | 14.3% | -1.0 | -0.8 | 0.9% | -0.3 | 4.7
O=C(Nc1c2c(nn1-c1ccc(F)cc1)CS(=O)C2)C12CC3CC(CC(C3)C1)C2 (configuration not stated) | -13.1% | 5.0% | -1.5 | -0.9 | -1.9% | 0.4 | 4.5
CC(=O)c1c(C)[nH]c(C(=O)CN2CCN(S(=O)(=O)c3ccccc3F)CC2)c1C | 0.3% | · | 3.7 | · | -0.8% | 0.4 | ·
CC(C)(C)N(Cc1ccccc1)C(=O)COC(=O)C1CCN(c2ccc(C(F)(F)F)cn2)CC1 | ? | · | 5.6 | · | 8.5% | 0.0 | 10.0
O=C(COC(=O)CCc1nc2ccccc2c(=O)[nH]1)Nc1ccc(OC(F)(F)F)cc1 | -1.3% | · | 10.8 | · | 0.6% | 0.3 | -12.9
CCOC(=O)c1c(N)nn(C(=O)c2ccccc2F)c1-c1ccc(OC)cc1 | · | 8.9% | 5.6 | -2.4 | 0.7% | 3.0 | 1.4
CCCN1C(=O)SC(CC(=O)Nc2ccc(C)cc2)C1=O (configuration not stated) | -3.9% | 21.5% | -8.4 | ? | 0.9% | 0.2 | -8.9
Cc1ccc(C(=O)Nc2ccccc2C(=O)NC2CCCCC2)cc1S(=O)(=O)N1CCOCC1 | -5.0% | -0.1% | -1.6 | -0.2 | ? | 0.8 | 0.4
Cn1cccc1CC(=O)NNC(=S)Nc1ccccc1Cl | · | 14.7% | 20.6 | 9.6 | 1.3% | 0.1 | 6.5
O=C(c1cccc(C(=O)N2CCN(Cc3ccccc3)CC2)c1)N1CCN(Cc2ccccc2)CC1 | -2.5% | 7.1% | 4.8 | -3.2 | 2.3% | -0.3 | -15.5
c1ccc(-c2oc3ncnc(NCCCN4CCOCC4)c3c2-c2ccccc2)cc1 | -5.6% | -13.3% | 43.3 | 0.5 | -2.2% | 1.7 | -3.9
Cc1cccc(NC(=O)c2ccc(-c3nc(CSc4ccccc4)c(C)o3)cc2)c1C | -1.8% | · | 8.2 | · | 4.7% | 0.0 | ·
O=C1N/C(=N\S(=O)(=O)c2ccccc2)S/C1=C\c1cc([N+](=O)[O-])ccc1O | 1.3% | 12.7% | 2.0 | ? | 0.7% | 51.1* | -0.5
CC(C)(C)C(=O)Nc1sc2c(c1C#N)CCC2 | · | 5.6% | 7.2 | 4.5 | -0.6% | -1.2 | -12.3
Cc1ccc(NC(=O)c2cc(-c3ccc(F)cc3)on2)cc1C | 2.5% | 23.8% | · | -1.8 | 3.7% | · | -4.9
COc1cc(/C=C/CO)cc(OC)c1O[C@@H]1O[C@H](CO)[C@@H](O)[C@H](O)[C@H]1O | -8.6% | 3.5% | 31.2 | 3.2 | -0.5% | -0.2 | -0.8
COc1ccc(C2=CN3CCCCC3CC2=O)cc1OC (configuration not stated) | 3.1% | · | -7.5 | · | 0.6% | -1.0 | ·

Some of these compounds in order of their number in Menin MLL FP FL, rising:
mol	Menin MLL FP FL
COc1ccc(/C=N/NC(=O)CNS(=O)(=O)c2ccc(C)cc2)cc1	-1.9
CC(=O)Nc1nc2cc3c(cc2s1)OCO3	0.9
CC(C)(C)C(=O)Nc1sc2c(c1C#N)CCC2	4.5

(cont.)
SMILES | ClpP mod | Sfp PPTase inh | TRPML1 blocker | Menin MLL FP FL | PINK1 expr mod | TRPML1 ag | TRPV1 PAM
C[C@H](CO)N1C[C@H](C)[C@@H](CN(C)S(=O)(=O)c2ccc3c(c2)OCCCO3)OCc2cnnn2CCCC1=O | -0.6% | · | -10.5 | · | 0.3% | -0.3 | ·
Cc1ccc(-c2sc(C(=O)NN)c(C)c2C#N)cc1 | 0.0% | 14.6% | -17.0 | 2.7 | 11.2% | -0.2 | 18.5
CCCCC/S(CC1CC1(Cl)Cl)=N\S(=O)(=O)c1ccc(C)cc1 (configuration not stated) | · | 16.6% | 4.6 | 1.8 | -0.5% | -0.8 | -6.6
Cc1ccc(S(=O)(=O)NCCC(=O)NC2CCCCC2C)cc1 (configuration not stated) | 0.7% | · | -0.3 | · | 1.0% | -0.3 | -3.2
CCC(=O)NC(Nc1ccccn1)(C(=O)OC)C(F)(F)F (configuration not stated) | 0.8% | 28.5% | 13.0 | 2.3 | 3.3% | 0.7 | -1.5
